Screening results as filed in PubChem.
Bead autofluor: compound fluorescence in toxin protease inhibitor counterscreen; compound autofluorescence counterscreen, microsphere flow cytometry; active compounds read high; fluorescence intensity (concentration not given with the values); hit rate 3.1% among 360,000; AID 624483;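 active means at least 3 SD above the mean of all compounds, about 16000 in these data; inconclusive means too few beads counted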;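 further: 100 nL of 1 mM stock went into each well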
PrP 5UTR inh: suppresses PrP 5' UTR mRNA reporter expression | cell-based PrP 5' UTR mRNA reporter, plate reader | inhibition, % (no concentration beside the values) | hit rate 0.35% among 340,000 | AID 488862;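 active means every replicate at 50% or more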;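 further: 0 = median of the neutral control wells; tested in H4 reporter cells; numbers are from one replicate; inactives centre near -14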
BJeLR lethal: BJeLR cell viability loss | inhibition, % (test concentration not listed) | hit rate 0.17% among 300,000 | AID 1554 | BJeLR (HRASV12) viability, CellTiter-Glo ATP luminescence, 48 h; reference of the scale not given here;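 active means replicate mean above 50%; inconclusive means above 50% but judged a plate artefact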;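 further: 50 nL library stock added to about 25 µL; numbers are from one replicate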
ugtP null kill: kills S. aureus RN4220 lacking UgtP | growth inhibition, % (no concentration beside the values) | hit rate 0.54% among 330,000 | AID 1259309 | S. aureus RN4220 ugtP deletion, OD600 growth, 16 h; some inactives read as strong as hits;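 active means z-score under -3 and OD600 up to 0.15 on both plates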;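 further: plate controls were untreated wells for no effect and antibiotic for full effect; wells of about 80 µL received 100 nL stock; the first replicate is given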
Sa RN4220 lethal: S. aureus RN4220 growth inhibition; hit rate 0.33% among 330,000; OD600, 16 h; inhibition, % (no concentration beside the values);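 active means z-score of -3 or lower and OD600 up to 0.18 on both plates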;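 further: plate controls were untreated cells for no effect and reference antibiotic for full effect; stock transfer was 100 nL into about 80 µL; one replicate is shown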
Mtb hypoxia rep: reduces hypoxia-regulated biosensor signal in M. tuberculosis. fluorescence inhibition, % (no concentration beside the values). AID 1159583. hit rate 0.1% among 300,000. M. tuberculosis hypoxia-regulated fluorescent reporter, fluorescence;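 active means 35 to 45% if threefold the growth effect, above 45% if 1.5-fold the growth effect; inactive means the rest, general growth blockers included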;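 further: wells of about 50 µL received 100 nL stock; 0% = vehicle wells and 100% = reference inhibitor wells; whole bacteria with a GFP reporter of the hypoxia response; strong numbers were not always called active; many hits fall short of the cut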
Mtb hypoxia rep growth: second read-out of Mtb hypoxia rep, no call of its own (marks repeat the call); growth inhibition, %; measured here: M. tuberculosis growth (absorbance);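 0% = vehicle and 100% = reference antibiotic; read after six days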
* hit, by the source's call; u = inconclusive; x = no result given.

SMILES | Bead autofluor | PrP 5UTR inh | BJeLR lethal | ugtP null kill | Sa RN4220 lethal | Mtb hypoxia rep | Mtb hypoxia rep growth
O=C(CN1CCN(S(=O)(=O)c2ccccc2)CC1)Nc1ccc2c(c1)CCC2 | 2622 | -9.3 | -15.1 | 3.8 | 8.8 | 7.5 | 5.2
O=C(CN1CCOCC1)Nc1scc(-c2ccccc2)c1C(=O)N1CCOCC1 | 4144 | -23.6 | -2.4 | 7.1 | 6.9 | 2.8 | -2.1
COc1ccc(-c2nn(-c3ccccc3)cc2/C=N/NC(=O)c2cccc(S(=O)(=O)Nc3ccccc3Cl)c2)cc1 | 2554 | -56.1 | -1.8 | x | x | x | x
CCOC(=O)c1ccc(S(=O)(=O)N2CCN(C3CC(=O)N(c4ccccc4C(F)(F)F)C3=O)CC2)cc1 (stereo not drawn) | 6813 | -44.0 | x | 0.4 | 6.1 | -3.2 | -3.4
O=C(NCCCn1ccnc1)c1ccccc1NS(=O)(=O)c1ccc(F)c(F)c1 | 11463 | -15.3 | 3.6 | 0.6 | 0.2 | -6.0 | -1.3
O=C(Nn1cnc2ccccc2c1=O)c1ccc([N+](=O)[O-])cc1Cl | 4382 | -19.3 | -2.7 | 5.0 | 4.3 | -1.2 | 6.5
C=CCNC(=O)C1CC2Cn3c(nc4cc5ccccc5cc43)C2N1C (stereo not drawn) | 4318 | -7.7 | 2.4 | -2.1 | 0.6 | -1.7 | -0.5
COc1ccc(NC(=O)CN2C(=O)NC(C)(c3ccc4c(c3)OCO4)C2=O)cc1S(N)(=O)=O (stereo not drawn) | 3801 | -11.6 | x | 6.8 | 4.1 | 5.3 | 6.1
Cc1nn(CC(=O)NNC(=O)c2ccccc2F)c([N+](=O)[O-])c1Br | 6316 | x | -6.5 | 4.2 | 5.0 | 9.7 | 4.0
CCCCCC(=O)Nc1cccc(C2=NOC3(C2)C[C@H](C(N)=O)N(C(=O)COc2ccc(Cl)cc2)C3)c1 (stereo partly drawn) | 3320 | -19.2 | 0.1 | x | x | x | x
Cc1ccc(C)c(NC(=S)NCCc2ccc(F)cc2)c1 | 2110 | -13.3 | 9.7 | -10.5 | 2.9 | 15.9 | 19.4
Cc1ccc(OCCN2CCN(c3ncnc4sc(C)c(C)c34)CC2)cc1 | 12674 | -19.8 | 13.9 | 22.5 | 3.4 | 0.2 | 3.0
Cc1ccc(S(=O)(=O)N2CCOc3ccccc32)c(C)c1NS(C)(=O)=O | 3505 | -12.0 | 0.3 | 1.2 | 6.4 | -7.1 | 12.8
COCCOc1cc(NC(=O)CS(=O)(=O)CC(=O)N(C)C)c(Cl)cc1Cl | 4626 | -6.5 | 4.3 | -1.9 | 0.1 | 0.0 | 10.8
O=C(NC1CCCCC1)c1ccc(-n2cnnn2)cc1 | u | -14.4 | 2.8 | 4.4 | 1.7 | 11.0 | 17.3
O=C(COC(=O)CN1C(=O)C(=O)c2ccccc21)OCN1C(=O)c2ccccc2C1=O | 9968 | -23.6 | 7.0 | 7.1 | 3.1 | 4.6 | 4.2
Cc1ccc(C=NNC(=O)Cn2cnc3c2c(=O)n(C)c(=O)n3C)s1 | x | x | x | 5.3 | 5.3 | -2.1 | 4.9
Cc1ccc(C2=NOC3(CC(=O)N(c4ccccc4)C3=O)C2)cc1 (stereo not drawn) | 5785 | -21.1 | -5.8 | 2.4 | 0.1 | 7.1 | 5.9
O=C(OCC(=O)N1CCN(C(=O)c2ccco2)CC1)c1cccc(S(=O)(=O)N2CCc3ccccc32)c1 | 5102 | -14.1 | 5.5 | -4.7 | -3.2 | -5.5 | -10.3
CC1CN(C(C)CO)C(=O)c2cc(NS(=O)(=O)c3ccccc3)ccc2OC1CN(C)C(=O)Nc1ccc(C(F)(F)F)cc1 (stereo not drawn) | x | x | x | 0.1 | -0.4 | 6.5 | 5.8
CCOc1ccccc1NS(=O)(=O)c1ccc(Br)s1 | 9453 | -4.6 | -11.1 | -9.4 | 12.2 | 5.6 | 7.6
CCCn1c(=O)[nH]c(=O)c2c1nc(-c1cc([N+](=O)[O-])ccc1Cl)n2CCOC | 3458 | -9.9 | -2.8 | 14.4 | 0.3 | 12.1 | 10.0
CCCCNC(=O)c1cn(C)c2ccc(S(=O)(=O)N3CC(C)CC(C)C3)cc2c1=O (stereo not drawn) | 3795 | -2.2 | 14.0 | 8.4 | 5.3 | 3.2 | -2.7
O=C(O)Cn1cc(C(=S)N2CCOCC2)c2ccccc21 | 8513 | x | -12.9 | 11.4 | 5.0 | 4.3 | 0.3
Cc1c(C(=O)NCCSc2ccc(Cl)cc2)cccc1[N+](=O)[O-] | 2465 | -25.4 | -9.3 | -12.6 | 3.9 | x | x
S=C(NCc1cccs1)Nc1cccc2ccccc12 | 3338 | 6.0 | -7.5 | -1.3 | 0.5 | 1.3 | 15.1
Cc1ccc(N(C(=O)Cn2nnc(-c3ccccc3F)n2)C(C(=O)NC2CCCC2)c2ccncc2)cc1 (stereo not drawn) | 3878 | -14.1 | -6.6 | -0.7 | 4.9 | 13.5 | 2.9
Cn1cnnc1SCC(=O)N1N=C(c2ccc(Cl)cc2)CC1c1ccco1 (stereo not drawn) | 4698 | -10.7 | -4.7 | 8.9 | -1.2 | 13.9 | 13.8
CC1(C)CC(N2CCCC2)=CC(=[N+]2CCCCC2)C1 | 2197 | 12.8 | -1.9 | 10.4 | 8.6 | 1.7 | 5.0
C#CCOCCOCCOCCNc1nc(N2CCN(C(=O)[C@H](CCC(=O)O)n3cc(C(N)Cc4ccc(O)cc4)nn3)CC2)nc(N2CCN(C(=O)[C@H](CCC(=O)O)n3cc(C(N)[C@H](C)CC)nn3)CC2)n1 (stereo partly drawn) | 3643 | -16.5 | 5.9 | x | x | x | x

Rewritten with values under each structure: entries from further up.
Order of results – Bead autofluor | PrP 5UTR inh | BJeLR lethal | ugtP null kill | Sa RN4220 lethal | Mtb hypoxia rep | Mtb hypoxia rep growth
Cc1ccc(S(=O)(=O)N2CCOc3ccccc32)c(C)c1NS(C)(=O)=O
 : 3505 | -12.0 | 0.3 | 1.2 | 6.4 | -7.1 | 12.8
COCCOc1cc(NC(=O)CS(=O)(=O)CC(=O)N(C)C)c(Cl)cc1Cl
 : 4626 | -6.5 | 4.3 | -1.9 | 0.1 | 0.0 | 10.8
O=C(NC1CCCCC1)c1ccc(-n2cnnn2)cc1
 : u | -14.4 | 2.8 | 4.4 | 1.7 | 11.0 | 17.3

(listing goes on)
SMILES | Bead autofluor | PrP 5UTR inh | BJeLR lethal | ugtP null kill | Sa RN4220 lethal | Mtb hypoxia rep | Mtb hypoxia rep growth
Cc1cc(C)c(NC(=S)N2CCN(c3ccc([N+](=O)[O-])cn3)CC2)cc1C | 2874 | -9.5 | -5.2 | 6.2 | 0.6 | 6.1 | -8.7
CN(CC(=O)N1CCN(c2ncccn2)CC1)S(=O)(=O)c1ccc(Cl)cc1 | 5028 | -21.0 | -2.4 | 14.0 | 7.7 | 4.5 | -4.9
CS(=O)(=O)c1ccccc1C(=O)Nc1cccc2ncccc12 | 3450 | -8.7 | 14.1 | 0.8 | -1.8 | -8.0 | -3.3
C/C(=N\NC(=O)c1nnn(-c2nonc2N)c1CN(C)C)c1ccco1 | 5557 | -9.8 | -3.3 | x | x | x | x
Cc1nc(NCc2ccco2)[nH]c(=O)c1CCC(C)C | 21901* | 0.5 | 5.7 | 1.9 | 1.3 | 3.9 | 7.6
CCOC(=O)c1c(C)[nH]c(C(=O)OCC(=O)Nc2cc(C)ccc2OC)c1C | 3146 | -5.9 | -3.9 | 1.2 | 1.8 | x | x
CCOC(=O)CSCC(=O)Nc1c(C(=O)C2CC2)oc2ccccc12 | 6823 | -4.8 | 9.1 | -5.3 | 4.9 | 1.1 | -2.5
Nc1cc(C(=O)OCC(=O)N2CCOCC2)ccc1Cl | 4957 | -34.9 | -10.9 | 1.0 | 1.8 | -0.4 | -9.8
Cc1oc2cc3oc(=O)c(CC(=O)N[C@H](C(=O)N[C@@H](C(=O)O)c4ccccc4)C(C)C)c(C)c3cc2c1C | 4170 | -11.2 | -16.8 | 10.2 | 1.9 | x | x
CC1(C)CCC[C@@]2(C)C1CC[C@@]1(C)Oc3ccc(O)cc3CC21 (stereo partly drawn) | x | x | x | 82.5 | -8.7 | 20.0 | 9.0
COc1ccc(-c2csc3nc(-c4ccccc4F)oc(=O)c23)cc1OC | 11976 | -19.3 | -2.2 | 2.5 | 3.4 | 0.6 | 4.6
CCOC(=O)c1nc(C)n(-c2cc(OC)c(Cl)cc2Cl)n1 | 4685 | -11.7 | 2.2 | -0.4 | 4.0 | 2.4 | 10.9
O=C1CSCC(=O)N1Cc1ccc(Cl)c(Cl)c1 | 2900 | x | 12.0 | 3.2 | 4.4 | -0.9 | -9.7
O=C(CN1CCN(c2cccc(Cl)c2)CC1)c1ccc(O)cc1O | 5688 | -20.0 | -1.0 | 15.9 | 3.2 | -11.1 | -7.8
O=C(COC(=O)C12CC3CC(CC(O)(C3)C1)C2)NCCc1ccc(Cl)cc1 | 3422 | -20.3 | 7.1 | -1.0 | 1.6 | -6.4 | 7.2
COc1ccc(Cl)cc1NC(=O)CSc1nnc(C2CC2)n1N | 5021 | -17.4 | x | -1.3 | 0.1 | 9.6 | 2.0
O=C(CCN1C(=O)c2cccc3cccc(c23)C1=O)NC1CCS(=O)(=O)C1 (stereo not drawn) | x | 0.7 | -2.2 | 10.9 | 5.2 | 3.3 | 2.1
Cc1nc2cc(Nc3ccncc3)ccc2s1 | 4790 | -17.2 | 3.3 | 7.0 | 1.5 | -2.6 | 2.5
COC(=O)/C=C1/S/C(=N/NC(=O)c2ccc(Cl)cc2Cl)NC1=O | 6212 | x | -11.5 | -0.1 | 2.4 | 11.0 | 10.0
COc1ccccc1C(=O)N(Cc1sccc1C)C1CCS(=O)(=O)C1 (stereo not drawn) | 4942 | -5.5 | -6.4 | x | x | x | x
COc1ccccc1-c1coc2c(CN3C(C)CCCC3C)c(O)ccc2c1=O (stereo not drawn) | 4126 | -5.2 | 4.3 | 2.6 | 4.1 | 3.0 | -6.4
O=C(CCNS(=O)(=O)c1ccccc1C(F)(F)F)NC1CCCCCC1 | 6408 | -19.7 | x | 3.6 | 3.8 | 1.7 | 3.9
CC(Sc1nnc(C2CC2)n1C1CC1)C(=O)NC1(C#N)CCCCC1 (stereo not drawn) | 2648 | -16.5 | x | 10.5 | 6.5 | -0.9 | -3.1
O=C(CN1CCOCC1)Nc1nc2cc([N+](=O)[O-])ccc2s1 | 2531 | 6.1 | -12.4 | 7.3 | 6.0 | 0.5 | 6.2
CCOC(=O)CCc1n[nH]c(=O)[nH]c1=O | 4690 | -10.3 | 5.4 | -0.9 | 4.7 | x | x
CC(C)Cn1c(N)c(C(=O)COC(=O)C2Cc3ccccc3CN2S(C)(=O)=O)c(=O)n(C)c1=O (stereo not drawn) | 3991 | -1.0 | x | -2.9 | 1.9 | -6.9 | 0.7
CC(=O)COc1ccc2c(C)c(C)c(=O)oc2c1 | 3591 | -14.1 | -7.5 | -0.4 | 0.2 | x | x
COC(=O)C1=CN(CCOC23CC4CC(CC(C4)C2)C3)C=C(C(=O)OC)C1c1ccsc1 | 4986 | -9.7 | -0.9 | -0.8 | -12.5 | 0.4 | 1.5
CS(=O)(=O)n1nc(NCc2cccs2)nc1NCc1cccs1 | 4368 | -26.3 | -2.6 | 2.2 | 1.7 | 3.3 | 3.1
Cc1cccc(NC(=S)NCC(c2cccnc2)N2CCOCC2)c1C (stereo not drawn) | 2373 | -3.1 | -6.3 | 3.1 | 3.7 | 13.0 | 7.1
Cc1ccc(-n2cnc3ncnc(-c4ccccc4)c32)cc1 | 1971 | 7.8 | -4.2 | 10.4 | 2.4 | 9.0 | 7.8
COc1ccc(CCNC(=O)c2c(C)cc(=O)oc2C)cc1OC | 11003 | -30.8 | 0.6 | -2.6 | 4.4 | 3.2 | 3.2
Cc1ccc(C)c(N2C(=O)CSC2=NNC(=O)c2ccccc2Cl)c1 | x | x | x | 6.1 | 2.4 | 8.2 | 2.2
CCN(CC)CC(=O)Nc1cccc(S(=O)(=O)N2CCCC2)c1 | 4820 | -8.1 | 3.5 | 4.4 | 2.0 | -5.4 | -7.4
Cc1ccc(N2C(=O)C(NC(=O)c3ccccc3)(C(F)(F)F)C3=C2CC(C)(C)CC3=O)cc1 (stereo not drawn) | 2136 | -19.9 | -9.6 | 3.7 | -3.2 | -0.5 | 1.0
